Screens as filed in PubChem.
AID923 – qHTS Assay for Allosteric/Competitive Inhibitors of Caspase-1: Spectroscopic Profiling in AFC Spectral Region. compound fluorescence, AFC spectral region (405/520 nm); almost no hit is shown here. Potency, µM (highest dose often 57.5 µM), without a hit: at the highest dose fluorescence increase, hits mostly activators. AID 923, 2007. actives 1.1% (n = 75,000); active = well fitted activation curve with a large enough effect; inconclusive = small, poorly fitted or top-dose-only effect;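 also: potency is read from the fitted curve at half-maximal effect; 0% is about no effect; scaled to a free AFC standard on each plate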
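Compound autofluorescence profiled at 405 nm ex/520 nm em during kinetic caspase 1 run (50 nM enzyme, 5 uM Ac-WEHD-AFC, HEPES pH 7.5, 10 mM DTT). Titration up to 57 uM; baseline from regression intercept, normalized to AFC standard curve.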
A488 autofl – qHTS Assay for Spectroscopic Profiling in A488 Spectral Region | actives 0.1% (n = 59,000) | compound autofluorescence, A488 spectral region, dye equivalency; stronger effect = higher value | max dye equivalency, M | AID 591, 2007; active = above 10 nM dye equivalent; inconclusive = 1 to 10 nM; inactive = 1 nM or less; about half of its hits are not listed in these tables;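 also: highest value over a series up to 38 µM; compound alone in buffer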
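Spectroscopic profiling in the A488 region: compounds in pH 8.0 Tris (100 mM), 15 min RT, CCD imaging with 480 nm excitation and 540 nm emission; responses normalized against A488 dye standards.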
TSHR ag – qHTS Assay for Agonists of the Thyroid Stimulating Hormone Receptor | actives 0.48% (n = 73,000) | Potency, µM (top dose mostly 57.1 µM), without a hit: at the top dose activation, usual class: activators | Thyrotropin receptor (Homo sapiens), P16473 | HEK293-CNG-TSHR cells (CNG channel as cAMP sensor), membrane potential dye, cAMP; active = well fitted activation curve of enough size with the parental cells flat; inconclusive = any curve in the parental cells; inactive = parental cells flat and receptor cells flat or falling; also: potency is read from the fitted curve at half-maximal effect; % of control where 0% means no effect; weak receptor curves with flat parental cells got no call and are not listed
Target sequence (P16473 whole entry, looked up): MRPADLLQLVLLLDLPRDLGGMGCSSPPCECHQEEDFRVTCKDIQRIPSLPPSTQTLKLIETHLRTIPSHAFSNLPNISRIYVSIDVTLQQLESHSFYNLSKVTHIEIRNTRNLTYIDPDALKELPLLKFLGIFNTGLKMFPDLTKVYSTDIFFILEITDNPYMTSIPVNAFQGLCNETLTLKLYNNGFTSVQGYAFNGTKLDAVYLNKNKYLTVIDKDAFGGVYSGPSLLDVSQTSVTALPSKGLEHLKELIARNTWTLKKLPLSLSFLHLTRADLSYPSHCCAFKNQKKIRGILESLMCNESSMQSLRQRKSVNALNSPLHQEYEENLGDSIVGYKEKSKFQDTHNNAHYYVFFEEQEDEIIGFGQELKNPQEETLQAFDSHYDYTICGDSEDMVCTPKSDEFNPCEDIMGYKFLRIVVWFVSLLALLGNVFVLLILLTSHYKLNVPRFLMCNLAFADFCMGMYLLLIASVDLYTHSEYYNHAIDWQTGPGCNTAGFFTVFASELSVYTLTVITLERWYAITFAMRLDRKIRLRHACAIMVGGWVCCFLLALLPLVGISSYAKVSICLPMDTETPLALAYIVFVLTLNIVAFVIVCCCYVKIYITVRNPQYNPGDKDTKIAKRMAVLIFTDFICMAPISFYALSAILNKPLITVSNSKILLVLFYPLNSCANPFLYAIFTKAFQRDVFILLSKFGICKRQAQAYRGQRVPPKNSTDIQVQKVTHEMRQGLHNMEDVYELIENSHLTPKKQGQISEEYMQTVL
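HEK 293 cells stably expressing TSHR and a modified CNG channel, with CNG-only parental cells as counterscreen, were preloaded 60 min at room temperature with membrane potential dye containing 100 uM RO 20-1724. Compound exposure was 30 min, and depolarization was read as fluorescence at 590 nm.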
A647 fluor – qHTS Assay for Spectroscopic Profiling in A647 Spectral Region; AID 592, 2007; 59,000 tested, under 10 active; max dye-equivalent concentration, M; Compound fluorescence, A647 channel (570/671 nm), Tris buffer; active means above 1 µM dye equivalent; inconclusive means 0.1 to 1 µM; inactive means 0.1 µM or less;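 also: values scaled relative to a standard on each plate; highest value over a series up to 38 µM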
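Each compound's intrinsic fluorescence at 570 nm excitation and 671 nm emission is measured across its concentration series in 100 mM Tris, pH 8.0, after 15 min at room temperature, and reported relative to an A647 curve.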
Resorufin autofl – qHTS Assay for Spectroscopic Profiling in Resorufin Spectral Region; Compound fluorescence, resorufin region 547/598 nm, buffer; stronger effect = higher value; actives 0.04% (n = 59,000); max dye-equivalent concentration, M; active = above 10 nM dye equivalent; inconclusive = 1 to 10 nM; inactive = 1 nM or less; a few of its hits are not listed in these tables; also: highest value over a series up to 38 µM
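Dye-equivalent concentration values derive from comparing each well's 547/598 nm fluorescence against resorufin standards included on every plate. Incubation was 15 min at room temperature in 100 mM Tris, pH 8.0.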
An asterisk follows results filed as active; i = inactive; ? = inconclusive; · = no result given; [ ] = another dose, or the depositor's remark. The list is partial. The share of hits here may be higher or lower than overall.

canonical_smiles,AID923,A488 autofl,TSHR ag,A647 fluor,Resorufin autofl
COc1cc(OC)cc(-c2nc3nc(C)c(CCC(=O)NCc4ccco4)c(C)n3n2)c1,-0.4%,i,10%,8.8e-09,i
Cc1ccc(C2CC(c3cccc(Cl)c3)n3nc(N)nc3N2)cc1 (configuration not stated),-2.4%,·,-7%,·,·
CC1CCN(C(c2ccccc2)c2nnnn2C(C)(C)C)CC1 (configuration not stated),-0.8%,i,?,2.1e-08,i
c1ccc(-n2c(-c3ccncc3)nnc2-c2cccs2)cc1,1.4%,i,23%,2.3e-08,i
CCOC(=O)c1oc2ccccc2c1NC(=O)c1ccc(S(=O)(=O)N(C)C)cc1,0.4%,i,·,1e-09,i
O=C(CS(=O)(=O)Cc1ccccc1)N1CCN(C(=O)c2ccco2)CC1,-0.1%,i,-2%,2.7e-08,i
O=C(NCCN1CCOCC1)c1ccc(Cc2nc3ccccc3[nH]2)cc1,1.3%,·,0%,·,·
O=C(COc1cccc(C(F)(F)F)c1)Nc1ccc(S(=O)(=O)N2CCCC2)cc1,0.2%,i,-5%,4.7e-09,i
Cc1nnc(SCCc2ccccc2)[nH]c1=O,1.9%,i,5%,5.7e-08,i
CCOC(=O)c1cnc(SC2CC(=O)N(c3cccc(OC)c3)C2=O)nc1N (configuration not stated),·,i,·,2.1e-09,i
O=C(NC1CCS(=O)(=O)C1)c1cnccn1 (configuration not stated),1.0%,i,3%,1.2e-08,i
c1coc(-c2nc3c4c5c(sc4ncn3n2)CCCC5)c1,2.1%,i,?,9.2e-09,i
N#C/C=C\Oc1ccc(Cl)cc1N,-0.6%,i,·,1e-09,i
CCOC(=O)N1CCN(C(=O)C(NC(=O)C2CCC(C)CC2)C(C)C)CC1 (configuration not stated),5.0%,i,-1%,5.9e-09,i
CSc1ccccc1NC(=O)CN(c1cc(C)cc(C)c1)S(C)(=O)=O,1.6%,i,15%,7e-09,i
O=C(O)C[n+]1ccccc1,-5.5%[11.5 µM],i,-7%[11.4 µM],1.8e-09,i
CN(C)c1cccc(C(=O)n2cc(C(=O)c3cc(F)ccc3O)cn2)c1,-0.3%,i,-2%,5e-09,i
O=C(OCC(=O)N1CCc2ccccc21)c1ccccc1,-2.7%,i,-4%,6.2e-09,i
COc1cc(OC)cc(C(=O)NC2CCN(Cc3nnnn3Cc3cccs3)CC2)c1,2.1%,i,?,1e-09,i
CC(=O)Nc1ccc(NC(=O)CSc2nnc(C3CC3)n2C)cc1,5.8%,i,1%,3.5e-08,i
COC(=O)c1cc2oc(C)cc2n1CC(=O)Nc1ccc(OC)c(OC)c1OC,2.1%,i,1%[11.4 µM],9.2e-09,i
CCc1nc(SCC(=O)Nc2ccccc2C(=O)OC)n[nH]1,-0.6%,i,-2%,3.7e-08,i
Cc1cc(NS(=O)(=O)Cc2ccccc2)cc(C)c1OCC(=O)N1CCOCC1,0.8%,i,-14%,2.3e-08,i
CCCS(=O)(=O)N1CCCC(C(=O)N2CCN(c3ccccc3)CC2)C1 (configuration not stated),0.0%,i,-2%,1e-09,i
Cn1c(SCC(=O)O)nnc1C1CCCCC1,-0.8%,i,-2%,1e-09,i
CCC(=O)OCC(=O)c1c(N)n(Cc2ccccc2)c(=O)n(C)c1=O,0.4%,i,0%,1e-09,i
CC(C)=C1SC(N2CCN(Cc3ccccc3)CC2)=NC1=O,-1.8%,·,2%,·,·
O=C(CN1C(=O)CCC1=O)Nc1nc(-c2nc3ccccc3s2)cs1,3.6%,·,?,·,·
O=C(c1ccc2c(c1)C(=O)N(c1ccc(Cl)cc1)C2=O)N1CCN(c2ccccn2)CC1,0.9%,i,2%,3e-08,i
Cc1ccc(CCn2c3c(c4ccccc42)CN(C)CC3)cn1,2.9%,·,12%,·,·
Clc1ccc2c(N3CCCC3)ccnc2c1,8.7%,i,11%,2.9e-08,i
CCOC(=O)C1CCN(C(=O)CCn2c(=O)[nH]c3ccccc3c2=O)CC1,0.3%,i,2%,5.3e-09,i
Cc1cccc(C)c1NC(=O)C1(N2CCN(C(=O)c3ccco3)CC2)CCCCC1,1.9%,i,·,1.9e-08,i
COc1ccc(CCN2C(=O)c3cccnc3C2=O)cc1OC,0.3%,i,-2%,3.2e-09,i
COc1cc(Cl)c(C)cc1NC(=O)CSc1nnc(-c2cccnc2)n1Cc1ccco1,2.0%,i,9%,1e-09,i
O=C(CCC1COc2ccccc2O1)Nc1ccccn1 (configuration not stated),0.0%,i,10%,1e-09,i
COc1ccc(N2CCN(CC(=O)Nc3nnc(-c4ccccc4)s3)CC2)cc1,-2.0%,i,-7%,1.9e-09,i
Cc1cc(C)c(NC(=O)OCCN2CCOCC2)c(C)c1,·,i,·,7.2e-08,i
O=C(c1cccs1)N1CCN(C2CCCCC2)CC1,-0.9%,i,2%,1.3e-08,i
COC(=O)c1c(NC(C)=O)sc2c1CCCC2,0.0%,i,14%,5.4e-09,i
CCN(CC)Cc1nc2c(c(=O)[nH]1)C1(CCCCC1)Cc1ccccc1-2,-0.4%,i,9%,1e-09,i
COc1cccc(C(=O)OCCN2C(=O)c3ccccc3C2=O)c1OC,-0.5%,i,12%,3.5e-09,i
COC(=O)[C@H](C)NC(=O)Nc1ccccc1F,-0.5%,i,-8%,1e-09,i
Cc1cc(O)c(C=Nc2cccc(Cl)c2)c(=O)o1,9.3%,·,0%,·,·
COc1ccccc1Nc1nc(N)nc(CN2CCCCCC2)n1,1.5%,i,4%,1e-09,i
O=C(c1ccccc1)c1cc(-c2ccccc2)on1,·,i,·,9.8e-08,i
O=C(NC1CCCC1)c1cccnc1N1CCCCCC1,-2.2%,i,1%,1e-09,i
CCOC(=O)c1oc2ccccc2c1CSc1nnc(-c2ccco2)o1,-0.5%,i,?,1e-09,i
CC[C@@]1([N+](=O)[O-])C[C@H]2C=C[C@@H]1C2,-0.9%[11.5 µM],i,1%[11.4 µM],5.4e-08,i
Cn1c(=O)cc(OCC(=O)N2CCCc3ccccc32)c2ccccc21,-0.7%,i,6%,6.1e-09,i

The results go on:
canonical_smiles,AID923,A488 autofl,TSHR ag,A647 fluor,Resorufin autofl
O=C(CC(NS(=O)(=O)c1ccc(Cl)cc1)c1ccco1)NCc1cccnc1 (configuration not stated),0.6%,i,-6%,3.6e-08,i
Cn1cccc1C(=O)N1CCC2(CCCN(C(=O)Nc3ccccc3)C2)CC1,1.3%,i,?,9.8e-09,i
CCCNC(=O)C1CC(=O)N(c2ccc(OCC(=O)Nc3cc(C)cc(C)c3)cc2)C1 (configuration not stated),3.1%,·,-17%,·,·
CCN1CCN(C(=O)C2CCN(C(=O)c3cc4sccc4n3CC)CC2)CC1,-0.6%,·,6%,·,·
Cc1ccc2nc3c(c(C(=O)O)c2c1)CCC3,3.4%,i,1%,1e-09,i
Cc1c(NC(=O)NC(=O)c2ccc(F)cc2)c(=O)n(-c2ccccc2)n1C,-0.5%,·,-6%,·,·
CCOC(=O)c1c(NC(=O)CN2CCOCC2)sc2c1CCCC2=O,0.4%,·,12%,·,·
CCOC(=O)Cc1csc(NC(=O)CSc2nnc(C)n2C)n1,1.1%,i,0%,1e-09,i
c1coc(-c2ncc[nH]2)c1,3.3%,i,1%,1e-09,i
N#CC1=C(N)OC2=C(C(=O)CCC2)C1c1ccsc1 (configuration not stated),-0.5%,·,-8%,·,·
O=C1[C@@H]2[C@@H](C(=O)N1c1ccc(OCc3ccccc3)cc1)[C@@H]1c3ccccc3[C@@H]2[n+]2ccccc21,-3.9%[11.5 µM],i,-1%[11.4 µM],1.4e-09,i
O=C(CN1CCCC1)Nc1ccc(NC(=O)Nc2ccccc2Cl)cc1,-0.6%,i,-2%,1e-09,i
CCN(CC)CCCN1C(=O)C(=O)/C(=C(/O)c2c(C)nc3ccccn23)C1c1ccc(C)o1 (configuration not stated),0.1%,i,5%,4e-09,i
c1coc(CNc2c3c(nc4ccccc24)CCC3)c1,4.4%,·,22%,·,·
COC(=O)C1=C(C)NC(=O)CC1c1ccc(F)c(Br)c1 (configuration not stated),-2.0%,i,-4%,7.9e-09,i
Cc1ccc(C)c(Cn2nnc3c(=O)[nH]c(C4CCCN(C(=O)C5CCCCC5)C4)nc32)c1 (configuration not stated),0.0%,i,?,7.8e-09,i
CC(=O)Nc1ccc(OC(=O)c2cccs2)cc1,-1.6%,·,?,·,·
Cc1cc(NC(=O)CSc2nnc(COc3ccccc3)n2Cc2ccco2)no1,1.1%,i,-3%,1e-09,i
CC(OC(=O)c1nsc(Cl)c1Cl)C(=O)NCc1cccs1 (configuration not stated),-0.6%,i,3%,2.4e-09,i
O=C(COC(=O)c1ccccc1)NCC1CCCO1 (configuration not stated),-0.8%,i,2%,8.7e-09,i
O=C(CSc1cc(Cl)ccc1Cl)NCC1CCCO1 (configuration not stated),0.6%,i,1%,2.2e-08,i
COC(=O)C1=C(C)N=c2s/c(=C/c3cccs3)c(=O)n2C1c1cccs1 (configuration not stated),1.6%,i,-8%[11.4 µM],1e-09,i
CCCc1nc2ccccc2c(C(=O)OC2CCOC2=O)c1CC (configuration not stated),0.4%,i,15%,2.5e-09,i
CCSc1nnc(-c2cccc(S(=O)(=O)N(C)C)c2)n1-c1cc(OC)ccc1OC,0.6%,i,?,3.6e-08,i
c1ccc([P+](CC[P+](c2ccccc2)(c2ccccc2)c2ccccc2)(c2ccccc2)c2ccccc2)cc1,0.8%[11.5 µM],i,-4%[11.4 µM],1.2e-09,i
COc1cccc(C2CC(c3ccccc3C)n3nc(N)nc3N2)c1 (configuration not stated),0.5%,·,0%,·,·
CCc1ccc2oc(=O)cc(CN3CCOCC3)c2c1,1.2%,i,18%,3.1e-08,i
CNc1oc(-c2ccccc2Cl)nc1C#N,·,i,·,1.3e-08,i
O=C(O)CSC12CC3CC(C1)CC(C(=O)O)(C3)C2,-2.9%,i,-2%,6.1e-09,i
COC(=O)c1cnn(C(=O)c2cc(OC)ccc2Br)c1N,-2.1%,i,-1%,2e-08,i
CO[C@@H]1/C=C\O[C@]2(C)Oc3c(C)c(O)c4c(O)c(cc(O)c4c3C2=O)NC(=O)/C(C)=C\C=C/[C@H](C)[C@@H](O)[C@H](C)[C@H](O)[C@H](C)[C@H](OC(C)=O)[C@@H]1C,-1.2%[11.5 µM],i,-5%[11.4 µM],1e-09,i
CCOC(=O)N1CCC(NC(=O)CN2C(=O)COc3ccc(C(C)(C)C)cc32)CC1,-1.0%,i,-8%,7.7e-09,i
COc1ccc(OC)c(C(=O)CSc2nnc(-c3cccs3)n2C)c1,-1.4%,i,11%,2.6e-08,i
COc1ccc(S(=O)(=O)NC2(C(F)(F)F)N=C3SCCN3C2=O)cc1 (configuration not stated),-0.7%,i,-2%,9e-09,i
CCCS(=O)(=O)N1CCC(C(=O)NCCN2CCC(Cc3ccccc3)CC2)CC1,-0.5%,i,-1%,5.8e-09,i

Retrieved by compound from the entries so far (two):
canonical_smiles,AID923,A488 autofl,TSHR ag,A647 fluor,Resorufin autofl
COc1ccc(S(=O)(=O)NC2(C(F)(F)F)N=C3SCCN3C2=O)cc1 (configuration not stated),-0.7%,i,-2%,9e-09,i
CCc1ccc2oc(=O)cc(CN3CCOCC3)c2c1,1.2%,i,18%,3.1e-08,i
